TRPV1 PAM: potentiators of human vanilloid receptor 1 (TRPV1). AID 540277. 320,000 tested, 0.02% active. TRPV1-expressing cells, Fluo-8 calcium influx, capsaicin EC20 potentiation; host cell line not named in the record; control for the full effect not named in the record. potentiation, % at 8.33 µM. Q8NER1; active means potentiation above 80%; inconclusive means 30% to 80%; inactive means below 30%; further: 0% is about no effect
Target sequence (Q8NER1 whole entry, looked up): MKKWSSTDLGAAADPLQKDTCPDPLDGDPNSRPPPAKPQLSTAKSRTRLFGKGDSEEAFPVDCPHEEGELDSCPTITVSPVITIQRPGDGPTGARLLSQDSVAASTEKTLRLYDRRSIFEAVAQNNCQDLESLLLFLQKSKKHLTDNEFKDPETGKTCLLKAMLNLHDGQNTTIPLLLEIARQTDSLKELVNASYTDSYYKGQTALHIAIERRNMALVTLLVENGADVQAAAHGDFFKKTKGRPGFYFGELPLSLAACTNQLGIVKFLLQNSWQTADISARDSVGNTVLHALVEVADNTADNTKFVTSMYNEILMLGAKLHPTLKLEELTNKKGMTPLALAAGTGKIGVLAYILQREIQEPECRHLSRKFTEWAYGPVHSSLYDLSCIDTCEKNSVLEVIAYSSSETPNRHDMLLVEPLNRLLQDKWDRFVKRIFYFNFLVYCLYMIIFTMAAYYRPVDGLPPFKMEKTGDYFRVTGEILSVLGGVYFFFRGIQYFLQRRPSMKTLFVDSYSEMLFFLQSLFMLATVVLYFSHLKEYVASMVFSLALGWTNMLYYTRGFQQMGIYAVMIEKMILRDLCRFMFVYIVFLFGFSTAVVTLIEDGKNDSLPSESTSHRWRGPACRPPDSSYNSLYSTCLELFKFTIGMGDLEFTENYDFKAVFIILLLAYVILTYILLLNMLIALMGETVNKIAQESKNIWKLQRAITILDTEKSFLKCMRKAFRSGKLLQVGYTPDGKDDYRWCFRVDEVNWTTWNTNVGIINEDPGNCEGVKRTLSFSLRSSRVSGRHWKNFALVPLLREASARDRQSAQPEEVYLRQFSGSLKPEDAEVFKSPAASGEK
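Cells expressing TRPV1 were dye-loaded with Fluo-8 and read kinetically: 10 s baseline, 3 min after compound (agonist portion), then 2 min after EC20 capsaicin (allosteric enhancer portion). Calcium-bound dye fluorescence at 480/520 nm.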
Menin-MLL FL inh: menin-MLL binding inhibition, fluorescein peptide; Fluorescence polarization, fluorescein-MLL peptide displacement from menin; FP activity change, % at 61.4 µM; 290,000 tested, under 10 active; AID 1766; inconclusive = falling polarisation curve, or a change in total fluorescence; inactive = total fluorescence flat and polarisation flat or rising; no compound was filed as active; the % refers to the polarisation; negative = inhibition;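 further: % of control where 0% means no effect; inhibitors lower the polarisation; unlabelled MLL peptide was the positive control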
ClpP mod: qHTS Assay for Activators of ClpP; AID 651965, 2013; 340,000 tested, 1.9% active; ATP-dependent Clp protease proteolytic subunit (Bacillus subtilis (strain 168)), P80244; Potency, µM (series often up to 57.5 µM), without a hit: top-dose activity change, negative = active; purified B. subtilis ClpP, FRET peptide cleavage, 20 min; active = well fitted falling curve with a large enough effect; inconclusive = small, poorly fitted or top-dose-only effect; inactive = no such curve, though single readings can be large or run the other way; further: potency means the concentration at half of the fitted maximal effect; the source files actives as falling curves though it sought activators and does not explain the sign; nearly all actives have a fitted effect of over 65% in size; many hits overshoot -100%
Target sequence (P80244 whole entry, looked up): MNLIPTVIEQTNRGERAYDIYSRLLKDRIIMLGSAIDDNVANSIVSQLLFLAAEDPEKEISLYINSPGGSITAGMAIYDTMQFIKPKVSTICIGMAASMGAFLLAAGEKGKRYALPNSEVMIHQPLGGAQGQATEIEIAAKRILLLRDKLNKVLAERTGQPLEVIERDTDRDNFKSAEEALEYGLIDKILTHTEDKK
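Purified B. subtilis ClpP, 10 microg/mL final in Tris/HCl pH8 with KCl, BSA, glycerol and Tween-20, cleaved an Abz/nitrotyrosine-quenched decapeptide. Fluorescence (ex 320, em 430) was read at 0 and 20 min at room temperature. Delta was normalized to 5.8 microM ADEP and DMSO/no-enzyme controls.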
TRPML1 inh: blocks the human TRPML1 channel; 390,000 tested, 0.02% active; TRPML1-inducible cells, Ca2+ dye fluorescence, FDSS; active compounds read low; inhibition of EC80 agonist-evoked calcium signal; activity change, negative = inhibition, % (concentration not given with the values); Q9GZU1; in the data active means activity change below about -50%; inconclusive means about -30% to -50%; inactive means above about -30%;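 further: stimulus is agonist 54-4 at its EC80 concentration; on the % scale 0 is the no-effect control and ±100 the full control effect; the text of the record puts the active cut at -80%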
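TRPML1-DL cells, Tet-induced overnight (~16 h, 37 °C) at 1,500 cells/well, were loaded with Ca8 no-wash dye plus quencher for 45-90 min at room temperature. Compounds were pinned during FDSS kinetic reading; agonist 54-4 at EC80 (4 uM final) then added.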
Sfp PPTase inh: Sfp phosphopantetheinyl transferase inhibition | AID 1490 | 310,000 tested, 3.5% active | Q9F4F7 | Potency, µM, for inactives: max response, negative = inhibition, hits mostly inhibitors | Biochemical Sfp PPTase activity, qHTS; active means well fitted inhibition curve with a large enough effect; inconclusive means small, poorly fitted or top-dose-only effect, or another doubt; inactive means no such curve, though single readings can be large or run the other way;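 further: the enzyme is Sfp with the accession as filed and its product quenches rhodamine fluorescence; potency means the concentration at half of the fitted maximal effect; 0% = enzyme reaction without inhibitor and -100% = no enzyme wells; top concentration of the series not given in the record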
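Step 1, compound plus 15 nM Sfp-PPTase, 15 min, room temperature. Step 2, add rhodamine-CoA (5 uM) and BHQ-2-YbbR (12.5 uM). Step 3, read 525/598 nm fluorescence at 0 and 30 min.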
gsp agonist: gsp mutant agonism. AID 624287. gsp mutant cells, cAMP HTRF, 30 min; control for the full effect not named in the record. 340,000 tested, 0.13% active. Potency, µM (highest dose often 76.9 µM), for inactives: at the highest dose activation (cAMP increase), usual class: activators; active = well fitted activation curve with a large enough effect; inconclusive = small, poorly fitted or top-dose-only effect, or another doubt; inactive = no such curve, though single readings can be large or run the other way; cell line not stated here;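 further: phosphodiesterase inhibitor Ro 20-1724 added with compounds to block cAMP breakdown; potency means the concentration at half of the fitted maximal effect; nearly all actives have a fitted effect of over 60% in size; about a fifth of the inactives were tested at one dose only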
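Cells in DMEM/10% FBS with G418 were pretreated with compounds in DMSO plus […] (300 uM stock) for 30 min at 37C. cAMP was measured by HTRF (cAMP-d2 plus anti-cAMP antibody-K) after 30 min at room temperature.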
gsp antagonist: antagonizes gsp, the McCune-Albright syndrome mutation. gsp-mutant cells, cAMP HTRF, 30 min; control for the full effect not named in the record. 340,000 tested, 0.4% active. Potency, µM (series often up to 76.9 µM), without a hit: at the top dose activity change, negative = inhibition, usual class: inhibitors; active = falling curve of any shape with a large fitted effect; inconclusive = falling curve, mostly with a smaller effect; inactive = flat or rising curve; cell line not stated here;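 further: intracellular cAMP measured with PDE inhibitor Ro 20-1724 present during compound exposure; potency means the concentration at half of the fitted maximal effect; on the % scale 0 is the no-effect control and ±100 the full control effect; nearly all actives have a fitted effect of over 65% in size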
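HTRF cAMP read-out (cAMP-d2 plus anti-cAMP antibody-K in lysis buffer, 30 min RT). Before lysis, cells are exposed to compounds with […] for 30 min at 37C in DPBS containing Ca/Mg, BSA and Tween 20.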
The depositor's hits bear a star; ? = inconclusive; · = no result given; & = joins results of further samples; [ ] = another dose, or the depositor's remark.

SMILES	TRPV1 PAM	Menin-MLL FL inh	ClpP mod	TRPML1 inh	Sfp PPTase inh	gsp agonist	gsp antagonist
C/C(=N\OCC(=O)Nc1ccccc1Br)c1cccs1	6	0.0	1.3%	15	-5%	-1%	-14%
CS(=O)(=O)c1ccc(C(=O)Nc2ccccc2Cl)cc1	-6	0.6	0.7%	-13	10%	-10%	-1%
CC(C(=O)N(C)Cc1cccc(F)c1)N1CCN(S(=O)(=O)c2ccc3c(c2)OCCCO3)CC1 (configuration not stated)	-28	·	-1.6%	0	·	4%[15.4 µM]	-10%
O=C(NCc1cccs1)c1cc2c(s1)-c1ccccc1OC2	-2	3.8	4.4%	12	-17%	?	-20%
Cc1ccccc1OCC(=O)OCC(=O)Nc1ccc(Cl)cn1	12	·	0.0%	24	·	23%	8%
N/C(=N\N=C\c1ccc(O)c(O)c1)c1nonc1N	1	0.1	1.9%	4	19%	5%	-5%
CC1c2cc3c(cc2CCN1C(=O)c1ccc(Cl)cc1)OCCCO3 (configuration not stated)	17	·	-2.4%	15	-17%	24%	-12%
O=C(NC(Cc1c[nH]c2ccccc12)c1nnc2n1CCCCC2)c1ccccc1Cl (configuration not stated)	-10	3.9	1.9%	9	2%	23%	3%
CN(CC(=O)Nc1nccs1)S(=O)(=O)c1ccc(F)cc1	-10	2.1	0.6%	-14	16%	-6%	-11%
COC(=O)C1=C(C)N(C)C(=O)NC1c1cc2c(cc1[N+](=O)[O-])OCO2 (configuration not stated)	9	-14	·	-3	14µM*	-23%[15.4 µM]	·
CC1CCc2sc(C(=O)OCC(=O)NCc3ccccc3)cc2C1 (configuration not stated)	-19	2.3	-1.1%	-2	18%	-17%	13%
CSc1nnc(NC(=O)c2nc(S(=O)(=O)Cc3ccccc3F)ncc2Cl)s1	-2	1.8	·	22	?	-16%[15.4 µM]	35µM*
CCN(CCNCC(O)COc1ccccc1C(C)C)c1cccc(C)c1 (configuration not stated)	-5	-2.6	·	-10	45µM*	11%[15.4 µM]	10%
Cc1ccc(OCCC(=O)OCC(=O)Nc2ccc3c(c2)OCCO3)cc1	-1	·	·	7	·	-3%[15.4 µM]	0%
Cc1ccc(C(=O)NN(CCC#N)C2=NS(=O)(=O)c3ccccc32)cc1	0	-2.1	·	15	23%	-4%	3%
CC(=O)N1c2ccccc2S(=O)(=O)c2c1ccc1ccccc21	·	·	-19%	-3	·	-15%	-12%
NC(=S)NNC(=O)C12CC3CC(CC(C3)C1)C2	-9	-1.7	0.7%	-5	4%	14%	5%
CC(C)n1cc(CN2CCC(n3nccc3NC(=O)C3CCCC3)CC2)cn1	0	·	275%	-13	13%	-7%[15.4 µM]	16%
CCN(C[C@H]1N[C@@](Cc2ccccc2)(C(=O)OC)[C@H]2C(=O)N(Cc3ccccc3)C(=O)[C@@H]12)S(=O)(=O)c1ccc(C)cc1	·	·	1.2%	25	·	·	?
Cc1ccc(NC(=O)c2cc(N3C(=O)C4CC=CCC4C3=O)ccc2N2CCCCC2)cc1 (configuration not stated)	27	4.0	62%	18	0%	-22%	3%
CCNc1ccc(S(=O)(=O)N(C)C)cc1NCC(=O)Nc1ccc(F)c(Cl)c1	20	4.5	96%	-5	-2%	?	-43%
Cc1ccc(OCc2nc(C#N)c(N3CCCC3)o2)cc1	6	1.2	23%	-5	15%	17%	-28%
CC(C)CC(=O)Nc1ccc(N2CCN(C(=O)c3cccs3)CC2)cc1	-9	-0.3	·	6	6%	4%[15.4 µM]	1%
O=c1c2ccccc2c2ccccc2c(=O)n1-c1ccccc1	1	1.0	-1.5%	-1	13%	3%	5%
Cc1nsc2c1ccc1ccccc12	4	1.6	·	-4	6%	-8%[15.4 µM]	9%
COc1ccc(C(CNC(=O)c2c(C)nn(Cc3ccc(C)cc3)c2Cl)N2CCOCC2)cc1 (configuration not stated)	-8	·	-4.8%	-2	·	-63%[inhibitor]	-18%
Cc1ccc(C(CNC(=O)Nc2cccc(C)c2)N2CCN(C)CC2)cc1 (configuration not stated)	-1	-8.1	0.5%	-24	9%	41%	1%
COc1ccc(C(=O)NNc2ccccc2)cc1OC	-6	5.8	-0.4%	65	6%	-62%[inhibitor]	14%
O=C1NC(=Nc2ccccc2)S/C1=C\c1ccccc1	-6	5.8	2.6%	19	17%	-12%	-9%
CCCC(=O)OCC(=O)Nc1ccc2[nH]c(=O)[nH]c2c1	?	1.4	-0.7%	1	14%	-3%	11%
Cc1ccc(NC(=S)N(C)C(c2ccccc2)c2ccccc2)cc1C	16	1.8	-6.1%	7	4%	-1%	-11%
COc1ccc(CC(=O)NCCCSc2ccccc2)cc1OC	0	·	-0.4%	7	1%	7%	5%
Cc1ccc2[nH]c(C(=O)N3CCN(c4cccc(Cl)c4)CC3)cc2c1	1	9.0	·	7	19%	2%	5%
Cc1ccccc1NC(=O)NCCc1c[nH]c2ccccc12	-4	2.9	-7.6%	-8&-16	13%	-26%[15.4 µM]	4%
Oc1ccccc1-c1nc2cnccn2c1Nc1ccc2c(c1)OCCO2	8	5.9	0.5%	14	8%	25%	-27%
CC(=O)N1CCc2cc(S(=O)(=O)N3CCOCC3)ccc21	7	2.1	-0.7%	-1	12%	-1%	-1%
Cc1cc2n(n1)C(c1cccs1)Nc1ccccc1-2 (configuration not stated)	2	-1.7	20µM*	6	-11%	?	-6%
COc1ccc(S(=O)(=O)N(C)Cc2ccc3c(c2)OCCO3)cc1	-13	·	0.5%	6	·	?	-8%
O=C(/C=N/O)Nc1ccccc1C(=O)O	-12	2.8	1.1%	-5	1%	-37%[inhibitor]	?
CCN1C(=S)N[C@@H](c2cccc(F)c2)C(C(=O)OC)=C1C	0&-13	-1.2&-2.3	2.3%	1	19%&17%	·	19%
CC(C)Oc1ccc(C(=O)N(CN2CCCC2=O)c2ccc(F)cc2)cc1	-5	5.0	-0.1%	-5	-6%	-63%[inhibitor]	2%
COc1ccc(-c2csc(/C(C#N)=C\c3ccc(O)c([N+](=O)[O-])c3)n2)cc1OC	·	8.9	·	28	-10%	-11%[15.4 µM]	-29%
COc1ccc(C(=O)O)cc1NC(=S)NC(=O)c1ccc(-c2ccc(Cl)cc2)o1	-9	0.0	·	14	?	?	?
O=C1c2ccccc2-c2nc3ccccc3n21	4	1.4	7.9%	1&6	-6%	26%&7%	6%&-5%
COc1ccc(CCn2c(C)cc(C(=O)CSc3nnnn3C)c2C)cc1	-10	-2.0	1.1%	-7	-6%	-10%	5%
C/C(CC(=O)NCc1ccc(F)cc1)=N\NC(N)=S	1	-2.1	·	12	56µM*	5%[15.4 µM]	4%
COc1ccccc1N(CCN1C(=O)c2cccc3cccc(c23)C1=O)C(=O)c1ccncc1	3	-2.7	·	·	-14%	·	·
COc1ccc(CC(=O)Nc2ccc(N3CCN(c4ccc(OC)cc4)CC3)c(C#N)c2)cc1	17	2.5	43%	35	5%	-20%	-6%
Cc1nnc(SCc2cc(=O)n3[nH]cnc3n2)s1	8	-1.5	-1.8%	0	-23%	21%	15%
Cc1ccc(-n2c(Cc3cccn3C)nnc2SCC(N)=O)cc1	5	2.3	4.9%	9	4%	-30%[inhibitor]	-17%
O=C(NCc1ccccc1)c1ccc(NC(=O)C2CCC2)cc1	·	·	0.1%	4	·	·	2%
CCOc1ccc(C(O)C(CN2CCOCC2)c2ccccc2)cc1 (configuration not stated)	9	0.7	-1.3%	3	-5%	-45%[inhibitor]	6%
Cc1nnc(SCc2cccc([N+](=O)[O-])c2)s1	7	-0.5	·	7	3%	-7%	-3%
CCOC(=O)c1cccnc1SCC(=O)N(C)c1ccccc1	6	0.0	-0.7%	-2	14%	-19%	2%
CCS(=O)(=O)Nc1ccc(C(=O)CC2(O)C(=O)Nc3ccc(Br)cc32)cc1 (configuration not stated)	8	-4.6	?	2	11%	16%	9%
CCOC(=O)N1CCN(Cc2nc3ccc([N+](=O)[O-])cc3c(=O)n2-c2ccccc2F)CC1	4	-3.8	0.7%	53	-26%	10%	3%
O=C1Nc2ccccc2C1C(C[N+](=O)[O-])c1ccccn1 (configuration not stated)	10	-3.8	-0.5%	15	-7%	8%	9%
Cc1ccccc1OCCC(=O)OCC(=O)Nc1ccc(C(N)=O)cc1	-7	5.3	·	4	-6%	1%[15.4 µM]	-4%
CCOc1ccc(C(=O)C[n+]2ccc(C(=O)NCCO)cc2)cc1	18	-0.2	·	-19	14%	-15%	-3%
CC1CCCCC12NC(=O)N(CC(=O)N1CCN(S(=O)(=O)c3cccs3)CC1)C2=O (configuration not stated)	-18	·	·	-16	·	8%[15.4 µM]	6%

(list continues)
SMILES	TRPV1 PAM	Menin-MLL FL inh	ClpP mod	TRPML1 inh	Sfp PPTase inh	gsp agonist	gsp antagonist
CC(NC(=O)C(C)(C)C)C(c1cccs1)N1CCOCC1 (configuration not stated)	-5	-1.3	·	7	8%	18%[15.4 µM]	10%
COc1ccc2c(c1)nc(CN1CCN(CCO)CC1)n2C	-7	2.8	-1.5%	4	9%	-9%	0%
CN(C)S(=O)(=O)c1ccc2c(c1)C(=NO)c1cc(S(=O)(=O)N(C)C)ccc1-2	20	1.8	·	23	3%	-50%[inhibitor]	-7%
CC(=O)Nc1cccc(NC(=O)c2cc(Cl)ccc2Cl)c1	3	-4.6	·	13	17%	-6%	2%
COc1ccccc1NC(=O)CCCc1nc(-c2ccc(OC)c(OC)c2)no1	0	-0.4	-1.2%	-4	20%	36%	1%
CCC(=O)Nc1nnc(SCC(=O)NC2CCCC2)s1	1	-4.2	·	-3	7%	-2%[15.4 µM]	-1%
CCOC(=O)N1CCC(NC(=O)C2=CCN(S(=O)(=O)c3ccc(F)cc3)CC2)CC1	-6	-2.5	·	-15	14%	-1%[15.4 µM]	-4%
COc1ccccc1NC(=S)NC(=O)C(C)C	20	0.9	-2.0%	-5	3%	-6%	-3%
